A647 autofl: compound fluoresces in the A647 spectral region. Compound fluorescence, A647 channel (570/671 nm), Tris buffer. max dye-equivalent concentration, M. 59,000 tested, under 10 active; active means above 1 µM dye equivalent; inconclusive means 0.1 to 1 µM; inactive means 0.1 µM or less;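 also: values scaled relative to a standard on each plate; highest value over a series up to 38 µM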
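Each compound's intrinsic fluorescence at 570 nm excitation and 671 nm emission is measured across its concentration series in 100 mM Tris, pH 8.0, after 15 min at room temperature, and reported relative to an A647 curve.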
AID923: qHTS Assay for Allosteric/Competitive Inhibitors of Caspase-1: Spectroscopic Profiling in AFC Spectral Region; compound fluorescence, AFC spectral region (405/520 nm); almost no hit is shown here; Potency, µM (highest dose often 57.5 µM), for the others: top-dose fluorescence increase, usual class: activators; 75,000 compounds, 1.1% hits; AID 923, 2007; active = well fitted activation curve with a large enough effect; inconclusive = small, poorly fitted or top-dose-only effect;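 also: potency is read from the fitted curve at half-maximal effect; 0% is about no effect; scaled to a free AFC standard on each plate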
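Compound autofluorescence profiled at 405 nm ex/520 nm em during kinetic caspase 1 run (50 nM enzyme, 5 uM Ac-WEHD-AFC, HEPES pH 7.5, 10 mM DTT). Titration up to 57 uM; baseline from regression intercept, normalized to AFC standard curve.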
Resorufin fluor: resorufin region autofluorescence. Compound fluorescence, resorufin region 547/598 nm, buffer; active compounds read high. max dye-equivalent concentration, M. 59,000 compounds, 0.04% hits. AID 588; active = above 10 nM dye equivalent; inconclusive = 1 to 10 nM; inactive = 1 nM or less; a few of its hits are not listed in these tables; also: highest value over a series up to 38 µM
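Tris 100 mM pH 8.0; compound added, 15 min RT; CCD imager read, ex 547 nm/em 598 nm; signal normalized to resorufin standard curve (six concentrations per plate) as dye-equivalent concentration.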
A488 fluor: A488 region autofluorescence. max dye equivalency, M. AID 591. 59,000 compounds, 0.1% hits. compound autofluorescence, A488 spectral region, dye equivalency; active compounds read high; active = above 10 nM dye equivalent; inconclusive = 1 to 10 nM; inactive = 1 nM or less; about half of its hits are not listed in these tables;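 also: highest value over a series up to 38 µM; compound alone in buffer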
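Read-out: relative fluorescence at 480/540 nm, expressed as Alexa 488 dye-equivalent concentration from a six-point A488 standard included per plate. Conditions: 100 mM Tris, pH 8.0; 15 min incubation, room temperature.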
TSHR ag: activates the human thyroid stimulating hormone receptor | P16473 | HEK293-CNG-TSHR cells (CNG channel as cAMP sensor), membrane potential dye, cAMP | Potency, µM (top dose mostly 57.1 µM), without a hit: at the top dose activation, usual class: activators | 73,000 compounds, 0.48% hits; active = well fitted activation curve of enough size with the parental cells flat; inconclusive = any curve in the parental cells; inactive = parental cells flat and receptor cells flat or falling; also: potency is read from the fitted curve at half-maximal effect; % of control where 0% means no effect; weak receptor curves with flat parental cells got no call and are not listed
Target sequence (P16473 whole entry, looked up): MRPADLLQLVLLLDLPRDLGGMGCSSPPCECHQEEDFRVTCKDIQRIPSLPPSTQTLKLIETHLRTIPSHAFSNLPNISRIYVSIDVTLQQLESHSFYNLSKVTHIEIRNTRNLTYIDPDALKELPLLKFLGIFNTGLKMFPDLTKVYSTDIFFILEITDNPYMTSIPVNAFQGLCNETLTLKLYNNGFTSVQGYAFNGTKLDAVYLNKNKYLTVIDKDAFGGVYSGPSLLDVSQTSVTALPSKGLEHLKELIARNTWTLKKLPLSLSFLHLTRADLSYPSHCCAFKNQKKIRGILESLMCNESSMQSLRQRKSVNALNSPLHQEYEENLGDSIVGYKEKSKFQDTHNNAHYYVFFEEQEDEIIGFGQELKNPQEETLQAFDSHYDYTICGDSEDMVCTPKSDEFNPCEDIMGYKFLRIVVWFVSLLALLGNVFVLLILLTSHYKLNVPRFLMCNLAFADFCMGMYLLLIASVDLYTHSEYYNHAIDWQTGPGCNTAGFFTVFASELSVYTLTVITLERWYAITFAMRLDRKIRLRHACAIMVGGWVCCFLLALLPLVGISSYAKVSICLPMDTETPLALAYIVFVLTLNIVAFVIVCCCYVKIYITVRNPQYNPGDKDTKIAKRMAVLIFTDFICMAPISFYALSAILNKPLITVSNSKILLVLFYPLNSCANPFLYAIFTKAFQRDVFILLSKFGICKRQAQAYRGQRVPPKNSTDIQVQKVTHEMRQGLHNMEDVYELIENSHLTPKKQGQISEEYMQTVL
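cAMP rise detected as CNG-channel membrane depolarization by fluorescent dye (emission 590 nm), 30 min after compound, following 60 min dye loading containing 100 uM RO 20-1724 at room temperature. Cells: TSHR/CNG HEK 293, with parental CNG HEK 293 as control.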
An asterisk follows results filed as active; i = inactive; ? = inconclusive; . = no result given; [ ] = dose if it differs, or a comment.

SMILES	A647 autofl	AID923	Resorufin fluor	A488 fluor	TSHR ag
CCN(CC)CCN1C(=O)C(=O)/C(=C(/O)c2ccncc2)C1c1ccccc1 (stereo not given)	6.5e-09	0.1%	i	i	-3%
CCOC(=O)Cc1c(C)nc2c(-c3ccc(Cl)cc3)c[nH]n2c1=O	.	2.2%	.	.	-13%
Cc1nnc(NC(=O)CCC(=O)N2CCC(C)CC2)s1	7.7e-09	0.6%	i	i	11%
CSc1nc(N)c(C#N)c(-c2ccccc2Cl)c1C#N	5.1e-08	.	i	i	.
Cn1c(CCc2ccccc2)nnc1SCC(=O)N1CCCC1	2.4e-08	1.2%	i	i	1%
COc1ccc(NC(=O)Nc2ccc(N(C)C)cc2)cc1	8.9e-09	-1.4%	i	i	45%
O=C(O)C1CCC(=O)N1C1CCCC1 (stereo not given)	1.2e-08	-0.3%	i	i	7%[11.4 µM]
C[C@@H](CN1CCC(Cc2ccccc2)CC1)[C@@H](O)c1ccc(O)cc1	.	-1.1%	.	.	9%
COC(=O)C1=C(N)Oc2cc(C)n(CC3CCCO3)c(=O)c2C1c1ccccc1 (stereo not given)	2e-08	-2.2%	i	i	19%
CCOC(=O)c1ccc(N2C(=O)CC(C3CCCO3)C2=O)cc1 (stereo not given)	.	4.7%	.	.	-13%
Nc1c(S(=O)(=O)c2cccc(Cl)c2)c2nc3ccccc3nc2n1CCN1CCOCC1	1.6e-08	-2.1%	i	i	?
Cc1ccc(N(CC(=O)NCC2CCCO2)S(C)(=O)=O)cc1Cl (stereo not given)	2.5e-08	-0.2%	i	i	?
COC(=O)c1cc2sc(Cl)cc2n1CC(=O)Nc1ccc(OC)c(OC)c1OC	8.1e-09	-1.9%	i	i	14%[11.4 µM]
CC1CC(C)(C)NCCNC(C)CC(C)(C)NCCN1 (stereo not given)	.	0.1%	.	.	0%[11.4 µM]
CCC(=O)Nc1ccccc1C(=O)N1CCN(Cc2ccccc2)CC1	.	-2.3%	.	.	-2%
Cn1c(=O)c2c(nc(CN3CCN(c4ccccc4F)CC3)n2CCCc2ccccc2)n(C)c1=O	3.9e-08	0.0%	i	i	?
Cn1cc(C(=O)NCN2CCCCC2)c2ccccc21	9.8e-08	.	i	i	.
COc1cccc(Nc2ncccc2C(=O)O)c1	5.1e-09	0.2%	i	i	5%
Cc1ccc(NS(=O)(=O)c2cc(C(=O)O)ccc2Cl)cc1C	.	0.2%	.	.	7%
CN(C)CC(O)COc1cc2ccccc2cc1C(=O)N1CCCCC1 (stereo not given)	8.7e-09	1.5%	i	i	3%[11.4 µM]
O=C(CSc1nncs1)N1c2ccccc2Sc2ccccc21	2.3e-09	-0.3%	i	i	-9%
CCN(CC)CCOc1cccc(C(C)C)c1	.	-0.2%	.	.	?
O=C(O)CC(CNS(=O)(=O)c1ccccc1)c1ccccc1 (stereo not given)	.	1.9%	.	.	4%
O=C(c1cc(C2CC2)on1)N1CCOCC1	.	-3.9%	.	.	7%
O=c1c2c3c(sc2n(CCN2CCCC2)c(=O)n1Cc1ccco1)CCCCC3	7.8e-09	-0.4%	i	i	7%
COc1ccc(Cl)cc1NC(=O)c1ocnc1C	1.4e-08	-1.3%	i	i	-1%
O=C(c1csnn1)N1CCC2(CC1)CN(Cc1cc(C(F)(F)F)cc(C(F)(F)F)c1)C2	2.4e-09	3.3%	i	i	-2%
CC(=O)Nc1c(I)c(C(=O)N[C@H]2[C@@H](O)[C@H](O)[C@H](CO)O[C@@H]2O)c(I)c(N(C)C(C)=O)c1I	1e-09	2.5%[25.7 µM]	i	i	-12%[25.6 µM]
O=C(c1ccco1)N1CCN(C(=O)c2ccc(COc3ccc(F)cc3)o2)CC1	1e-09	-0.1%	i	i	3%
c1coc(Cn2c(SCc3nc4ccccc4[nH]3)nnc2-c2cnccn2)c1	1e-09	0.3%	i	i	?
COc1ccc(-c2nnc3sc(-c4ccccn4)nn23)cc1	2.2e-08	5.6%	i	i	8%
CCN(CC)C(=O)CSc1nc(O)cc(=O)n1CC	.	0.2%	.	.	3%[11.4 µM]
Nc1ncnc2c1nc(Br)n2[C@H]1O[C@H]2COP(=O)(O)O[C@H]2[C@@H]1O	.	-3.3%	.	.	8%
CC1(O)c2ccccc2C(=O)N1Cc1ccccc1 (stereo not given)	1.2e-08	1.2%	i	i	19%
CC1CCN(S(=O)(=O)c2ccc(NC(=O)CSc3nnnn3C)cc2)CC1	2.1e-08	-1.4%	i	i	-1%
CS(=O)(=O)N1CCN(c2ncccn2)CC1	4.3e-08	0.1%	i	i	2%
CC(=O)N(CC(=O)Nc1nn(-c2ccccc2)nc1C(N)=O)Cc1ccccc1	1e-09	1.6%	i	i	-4%[11.4 µM]
Cc1cc(C)c2[nH]c(=O)c(CN(Cc3ccco3)C(=O)C3CCCO3)cc2c1 (stereo not given)	4e-08	4.5%	i	i	17%
CCSc1sccc1C1C(C#N)=C(N)N(c2cccnc2)C2=C1C(=O)CC(C)(C)C2 (stereo not given)	.	-2.6%	.	.	11%
Nc1nc(CSc2ccccn2)nc(Nc2ccccc2)n1	1e-09	-0.3%	i	i	?
CCOC(=O)NC(NC(=O)OCC)C(=O)c1ccc(F)cc1	2.6e-08	-1.7%	i	i	3%[11.4 µM]
CN1CC(=O)NC1=NC(=O)c1cc(F)c(F)cc1Cl	7.5e-09	-0.5%	i	i	3%
COc1ccc(NC(=O)N(CCC(C)C)C(C)c2ccccn2)c(OC)c1 (stereo not given)	.	1.4%	.	.	?
Cc1ccc(N(C(C)C(=O)Nc2ccc(S(=O)(=O)N3CCOCC3)cc2)S(C)(=O)=O)cc1 (stereo not given)	3.3e-08	0.4%	i	i	-15%
CCOC(=O)c1cccc(NC(=O)CSc2nnc(-c3ccoc3C)n2CCOC)c1	4.4e-08	1.1%	i	i	9%
COc1cccc(N2CC(C(=O)Nc3ccc(C(=O)OC(C)C)cc3)CC2=O)c1 (stereo not given)	1.1e-08	-2.3%	i	i	-2%
CCOC(=O)CNC(=O)CSc1nnc(Cn2c(=O)sc3ccccc32)n1-c1ccccc1C	3.8e-08	1.4%	i	i	4%
CCOC(=O)C1=C(C)N=C2SC(C)C(=O)N2C1c1ccc(C(=O)OC)cc1 (stereo not given)	3.6e-08	.	i	i	.
CCc1nnc(NC(=O)C2CCCN(c3nc(C)cc(C)n3)C2)s1 (stereo not given)	7.7e-09	-1.3%	i	i	6%
Cc1onc(-c2ccccc2Cl)c1C(=O)NCCN1CCOCC1	1e-09	1.1%	i	i	-1%
Carrying on:
SMILES	A647 autofl	AID923	Resorufin fluor	A488 fluor	TSHR ag
Cc1scc(C(=O)NCc2ccco2)c1-c1ccccc1	.	1.0%	.	.	?
CC(=O)Nc1cccc(Oc2ccc(-c3noc(C)n3)cc2)c1	1e-09	2.3%	i	i	16%
Cc1ccc(Cn2c(SCC(N)=O)nc3c2c(=O)n(C)c(=O)n3C)cc1	7.9e-09	-1.2%	i	i	?
NC(=O)C(c1ccccc1)C1CCCC1 (stereo not given)	5.3e-08	.	i	i	.
O=c1c2ccccc2nc(SCc2nc3ccccc3s2)n1Cc1ccco1	1e-09	2.6%	i	i	?
Cc1cc(C)n(-c2ccc(C(=O)NCc3ccc4c(c3)OCO4)cc2)n1	3.6e-09	0.4%	i	i	1%
C(=C\CSc1nnnn1-c1ccccc1)/CSc1nnnn1-c1ccccc1	.	0.4%	.	.	?
O=C(c1cnccn1)N1CCC2(CCCN(c3ccccn3)C2)CC1	1.3e-09	-1.4%	i	i	-1%
CCOCCCN1C(=O)CN(C2CCCCC2)C(=O)C1c1ccc(OC)c(OC)c1 (stereo not given)	1e-09	0.9%	i	i	4%
CCSCCNC(=O)c1cc(-n2cnnc2)ccc1Cl	2.1e-08	3.2%	i	i	4%

In the list so far, these contain two or more sulfur atoms.
SMILES	A647 autofl	AID923	Resorufin fluor	A488 fluor	TSHR ag
O=C(CSc1nncs1)N1c2ccccc2Sc2ccccc21	2.3e-09	-0.3%	i	i	-9%
CC1CCN(S(=O)(=O)c2ccc(NC(=O)CSc3nnnn3C)cc2)CC1	2.1e-08	-1.4%	i	i	-1%
CCSc1sccc1C1C(C#N)=C(N)N(c2cccnc2)C2=C1C(=O)CC(C)(C)C2 (stereo not given)	.	-2.6%	.	.	11%
Cc1ccc(N(C(C)C(=O)Nc2ccc(S(=O)(=O)N3CCOCC3)cc2)S(C)(=O)=O)cc1 (stereo not given)	3.3e-08	0.4%	i	i	-15%
CCOC(=O)CNC(=O)CSc1nnc(Cn2c(=O)sc3ccccc32)n1-c1ccccc1C	3.8e-08	1.4%	i	i	4%
O=c1c2ccccc2nc(SCc2nc3ccccc3s2)n1Cc1ccco1	1e-09	2.6%	i	i	?
C(=C\CSc1nnnn1-c1ccccc1)/CSc1nnnn1-c1ccccc1	.	0.4%	.	.	?

Remaining list, next part:
SMILES	A647 autofl	AID923	Resorufin fluor	A488 fluor	TSHR ag
CCOc1ccc(NC(=O)C(C)Sc2nnc(C)n2C)cc1 (stereo not given)	.	-2.4%	.	.	?
CC(C)CC(=O)Nc1ccccc1N1CCCC1	2.1e-08	.	i	i	.
CC(=O)Nc1ccc(S(=O)(=O)Nc2nnc(C3CCCCC3)s2)cc1	2.1e-08	-3.2%	i	i	9%
CCN(CC)CCCC(C)NC1=NCCCCC1 (stereo not given)	1e-09	0.1%	i	i	-7%
Cc1ccc(C(=O)OCc2cn3ccccc3n2)cc1	1.6e-08	3.5%	i	i	?
CCOC(=O)c1cc(-c2cccs2)nn1CCC#N	8.1e-09	0.8%	i	i	3%
COc1ccc(-c2nnc(CSc3ncnc4sc5c(c34)CCC5)o2)cc1OC	2.5e-08	-0.1%	i	i	?
Nc1ncc(-c2cc3ccccc3oc2=O)s1	1e-09	2.5%	i	i	-4%
Cc1nc(SCc2ccccc2)c(C(F)(F)F)c(=O)[nH]1	1e-09	0.6%	i	i	6%
CCn1cc(SCC(=O)NCC2CCCO2)c2ccccc21 (stereo not given)	.	4.5%	.	.	-1%
COc1ccc(C(=O)c2ccc(N3CCN(C4CC(=O)NC4=O)CC3)cc2)cc1F (stereo not given)	2.7e-08	2.2%	i	i	1%
Cc1ccc2nc(-c3ccccn3)cc(C(=O)NC3CCN(C)CC3)c2c1	2.9e-09	1.2%	i	i	-5%
CCOC(=O)Cn1cnc2c(nnn2-c2ccc(C)cc2)c1=O	1e-09	-0.6%	i	i	?
COc1cccc(NC(=O)CSc2nnc(-c3cc(C)n(-c4ccccc4)c3C)o2)c1	1e-09	-2.1%	i	i	?
O=S(=O)(CCc1ccccc1)/N=C/c1cccs1	3.1e-09	1.1%	i	i	?
O=C1c2cccc3cccc(c23)C(=O)N1c1cccnc1	2.6e-08	1.7%	i	i	1%[11.4 µM]
Cc1ccc(S(=O)(=O)N2CCCC2C(=O)N(C)Cc2cccs2)cc1 (stereo not given)	1e-09	0.6%	i	i	6%
CCN(Cc1ccccc1)C(=O)CC1Oc2ccccc2NC1=O (stereo not given)	.	-2.4%	.	.	-3%
C/C(CCN1CCc2nc(-c3ccccc3)c(-c3ccccc3)cc2C1)=N\OC[C@@H](O)COCc1ccco1	.	5.3%[11.5 µM]	.	.	4%[11.4 µM]
C=CCn1c(N)c(C(=O)Nc2ccccc2OC)sc1=S	6.3e-09	-1.0%	i	i	.
O=C(Oc1ccccc1)N1CCC2(CC1)CCN(c1ccccn1)CC2	1e-09	-0.2%	i	i	?
CCn1cc(C(C)(C)C)c(C#N)c1NC(C)=O	5.5e-09	0.4%	i	i	1%[11.4 µM]
O=C(NCc1cccnc1)C1CCN(S(=O)(=O)N2CCC3(CC2)OCCO3)CC1	1e-09	0.1%	i	i	-2%
O=C1c2ccccc2C(=O)N1Cc1nc(-c2ccncc2)no1	3.1e-09	0.0%	i	i	14%
COc1ccc(-c2nnc(SC(=O)N3c4ccccc4Sc4ccccc43)o2)cc1	.	1.7%	.	.	-19%[11.4 µM]
COc1cc2[nH]c3c(N4CCN(c5ccccn5)CC4)ncnc3c2cc1OC	5.1e-08	-1.0%	i	i	-7%

Screens from PubChem BioAssay.

Only part of the results is shown (hit frequency here may not be typical).
